# From PubChem BioAssay
# Env fusion inh = inhibitors of HIV Env-mediated cell fusion; HeLa-JRFL Env/CEM21 cell fusion, luciferase; inhibition, % at 12.3 µM; 360,000 tested, 1.1% active; AID 651610;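 active means mean replicate inhibition score of at least 50 and every replicate individually at or above 50; inconclusive means only one of the two criteria met; inactive means mean below 50 and not all replicates reaching 50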;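 further: 0% = plate neutral controls and 100% = maraviroc near 300 nM; one replicate is shown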
# eIF4H inh = inhibitors of RNA binding by human eIF4H; inhibition, % at 35 µM; 290,000 tested, 0.94% active; Q15056; eIF4H fluorescence polarization binding assay;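 active means 50% or more with normal probe brightness, or confirmed in later tests; inconclusive means above 50% with abnormal brightness, or retests that disagree; inactive means below 50% or failed in later tests; about a fifth of its hits are not listed in these tables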;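 further: calls also rest on retests at 20 µM and on dose response follow-up; 0% = protein and probe with vehicle and 100% = probe without protein; strong numbers were not always called active; many hits fall short of the cut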
# MT1-MMP act inh = inhibitors of human MT1-MMP activation | 360,000 tested, 0.061% active | P50281 | GFP/RFP ratio change, % at 20 µM | HT1080 RFP-PRO-GFP cells, GFP/RFP ratio fluorescence, overnight; percent of plate control window, DMSO zero;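 active means GFP/RFP ratio change of at least 30% with cell ATP level not reduced by more than half and red fluorescence within 50% of control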; further: strong numbers were not always called active
#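 Material – HT1080 RFP-PRO-GFP cells · Control set – DMSO wells and RFP-L50D-GFP cells · Incubation – overnight cell settling, then overnight compound exposure, 37 °C, 5% CO2 · Compound dosing – single-point 20 µM compound, 1% DMSO · Read-out – GFP/RFP fluorescence ratio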
# Yeast UUG start = alters start codon recognition fidelity in yeast; S. cerevisiae UUG-firefly luciferase reporter, luminescence/redox ratio; activity score, % at 18.7 µM; 350,000 tested, 0.13% active; AID 602363;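 active means replicate mean at a twofold rise or more, about +100% in these data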;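 further: firefly luciferase made from a UUG start codon reports start codon fidelity; reporter light over untreated wells divided by growth signal over untreated wells; some hits fall short of that in this replicate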
# Rce1 inh = blocks yeast Ras-converting enzyme. AID 2563. 290,000 tested, 0.27% active. yeast membranes, quenched prenylated peptide cleavage fluorescence. calls only;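 active means fall in fluorescence gain of 50% or more versus controls, with final raw signal at or below 3038400; inconclusive means same 50% fall but final raw signal above 3038400; inactive means fall in fluorescence gain under 50%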;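 further: plate controls were neutral control wells for no effect and wells lacking membranes for full effect; tested at 10 µM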
# Target sequence (Q03530 whole entry, looked up): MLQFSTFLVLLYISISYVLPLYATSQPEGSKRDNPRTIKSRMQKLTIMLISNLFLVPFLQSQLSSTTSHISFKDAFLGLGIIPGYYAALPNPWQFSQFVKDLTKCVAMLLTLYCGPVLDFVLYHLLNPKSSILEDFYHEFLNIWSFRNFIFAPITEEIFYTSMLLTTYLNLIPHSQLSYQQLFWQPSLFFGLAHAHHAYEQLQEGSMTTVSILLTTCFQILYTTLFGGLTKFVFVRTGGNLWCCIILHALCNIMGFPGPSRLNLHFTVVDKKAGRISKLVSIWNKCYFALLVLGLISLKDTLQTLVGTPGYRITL
# PABP polyA inh = PABP-poly(A) binding inhibition; P11940; PABP-poly(A) RNA binding, fluorescence polarization; inhibition, % at 35 µM; 290,000 tested, 1% active; AID 2014;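 active means 50% or more with normal probe brightness, or confirmed in later tests; inconclusive means above 50% with abnormal brightness, or retests that disagree; inactive means below 50% or failed in later tests; about a fifth of its hits are not listed in these tables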;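 further: calls also rest on retests at 20 µM and on dose response follow-up; controls were probe without protein and protein plus probe with vehicle; some compounds called inactive have numbers as strong as hits; many hits fall short of the cut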
# CSC inhib = cancer stem cell inhibition. 300,000 tested, 1.1% active. AID 2717. cancer stem cell-like cells viability, luminescence. inhibition, % at 7.5 µM;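 active means mean at 75% or more and at least half the replicates too; inconclusive means mean and replicates disagree; tested in HMLE shEcad cells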;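 further: 0% = median of negative and 100% = median of positive control wells; the first replicate is given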
# eIF4H inh retest = further read-out of eIF4H inh, marked with its call; inhibition, %; compound at 20 µM; confirmation average;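 mean of two retest wells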
# MT1-MMP act inh RFP = also measured in MT1-MMP act inh; calls as there; RFP signal change, %; measured here: RFP expression control read;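 0 = vehicle wells; hits needed this value within 50% of zero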
# Numbers without * were called inactive; i = inactive; u = inconclusive; x = no result given. Not all compounds are listed (hit frequency here may not be typical).
# Sample of the layout (two entries):
SMILES,Env fusion inh,eIF4H inh,MT1-MMP act inh,MT1-MMP act inh RFP,Yeast UUG start,Rce1 inh,PABP polyA inh,CSC inhib,others
CC(C)COP(=O)(c1ccc(N(C)C)cc1)C(O)c1ccccc1F (configuration not stated),7,7,2,7,-7,i,8,-10,
O=S(=O)(Nc1cccnc1)c1ccc(Br)c2ccccc12,3,10,3,5,-3,i,0,-6,

# This part in full (from the top)
SMILES,Env fusion inh,eIF4H inh,MT1-MMP act inh,MT1-MMP act inh RFP,Yeast UUG start,Rce1 inh,PABP polyA inh,CSC inhib,others
CC(C)COP(=O)(c1ccc(N(C)C)cc1)C(O)c1ccccc1F (configuration not stated),7,7,2,7,-7,i,8,-10,
O=S(=O)(Nc1cccnc1)c1ccc(Br)c2ccccc12,3,10,3,5,-3,i,0,-6,
Cc1cccc(C)c1NC(=O)C1c2cccc[n+]2CC(=O)N1Cc1ccc2c(c1)OCO2 (configuration not stated),13,2,-7,0,-15,x,-1,-8,
Cc1ccc(N=C2NC(=O)CS2)cc1,i,-4,0,3,-21,i,7,-7,
COc1ccc(CNCc2ccccc2[N+](=O)[O-])cc1OC,3,8,5,2,-11,i,-4,5,
Cc1cc2cc(CNC(=O)c3ccc(S(=O)(=O)N4CCCC4)cc3)ccc2n1C,30,27,16,57,-20,i,-6,-10,
COc1ccc2c(c1)c1nc(SCC(C)C)n(CCO)c(=O)c1n2C,5,-6,-3,0,-27,i,6,-7,
COC(=O)c1cn(C(=O)c2ccccc2)c2ccccc12,-4,-4,6,7,x,i,4,16,
O=C(NNC(=O)c1ccncc1)Nc1cc(Cl)ccc1Cl,-12,x,0,-1,-13,x,x,x,
CCOc1ccc(N(CC(=O)NC2CCCC2)C(=O)CCC(=O)Nc2nccs2)cc1,-6,-7,-2,-3,-10,i,-1,x,
CN(C)CC/C=C1\c2cc(Cl)ccc2Sc2cc(F)c(F)cc21,15,x,-2,-7,x,i,x,-5,
COCCCNS(=O)(=O)c1cccc(S(=O)(=O)c2cccc(S(=O)(=O)NCCCOC)c2)c1,1,-3,1,-8,13,i,-6,-2,
O=C(NC(=S)Nc1ccc(NC(=O)c2ccco2)cc1)c1ccccc1,x,-7,-2,4,x,i,-2,-9,
CCCCOc1ccc(-c2n[nH]c(=S)n2Cc2ccccc2)cc1,-9,9,-2,-5,-19,i,6,-10,
CCOC(=O)c1cn(Cc2ccc(C)cc2)nn1,x,4,5,1,-21,i,1,11,
O=C(Nc1cccc(C(F)(F)F)c1)C1CCN(S(=O)(=O)c2cccnc2)CC1,11,1,2,0,-11,i,3,-24,
N#Cc1c(SCC(=O)N2CCOCC2)nsc1SCC(=O)N1CCOCC1,-14,-10,4,4,-20,i,-12,9,
CC(Sc1nnnn1C)C(=O)Nc1ccccc1-c1ccccc1 (configuration not stated),-6,-2,0,5,-13,i,1,-2,
Cc1ccccc1N1CCN(C(=S)c2ccc([N+](=O)[O-])cc2)CC1,17,-3,2,-1,-18,i,-2,41,
O=C(CNS(=O)(=O)c1ccccc1)N1CCN(C(=O)c2ccco2)CC1,8,x,4,1,3,i,x,-10,
CC(C)C(=O)NN(C(=O)C(C)C)c1nc2ccccc2s1,3,7,0,6,x,i,2,-2,
N/C(=N\S(=O)(=O)c1cccs1)c1ccccc1,x,0,3,-1,-13,i,-7,-13,
CN(CC(=O)Nc1ccc(Cl)cc1)c1ccc(S(=O)(=O)N2CCCCC2)cc1[N+](=O)[O-],16,8,2,-11,2,i,6,27,
CC(C)n1c(=O)c2ccccc2n1Cc1cn(-c2ccc(Cl)cc2)nn1,-8,x,1,-2,0,x,x,x,
CCCC(=O)Nc1nc(C)c(-c2csc(Nc3ccccc3OC)n2)s1,17,-1,3,10,-8,i,-6,20,
Clc1ccc(Nc2c3c(nc4ncnn24)CCC3)cc1,35,-3,2,0,-13,i,-5,-14,
Cc1nn(C(=O)c2c([N+](=O)[O-])cnn2C)c(C)c1Cl,0,0,-3,3,-2,i,-4,-9,
CCOC(=O)C1=C(C)N=c2s/c(=C\c3ccc(OCC(=O)O)cc3)c(=O)n2C1c1ccccc1OC (configuration not stated),-6,-14,-13,-6,-16,i,3,-33,
Cc1ccc2c(c1)nnn2C1CCN(C(=O)C23CC4CC(CC(C4)C2)C3)CC1,15,-3,-9,-19,-14,x,-3,67,
CCCCN1CCCCC1(C)C(=O)NCc1cccc(OC)c1 (configuration not stated),34,x,-1,-1,-10,x,x,x,

# Nothing new here: entries from further up.
SMILES,Env fusion inh,eIF4H inh,MT1-MMP act inh,MT1-MMP act inh RFP,Yeast UUG start,Rce1 inh,PABP polyA inh,CSC inhib,others
CC(C)n1c(=O)c2ccccc2n1Cc1cn(-c2ccc(Cl)cc2)nn1,-8,x,1,-2,0,x,x,x,
CCCC(=O)Nc1nc(C)c(-c2csc(Nc3ccccc3OC)n2)s1,17,-1,3,10,-8,i,-6,20,
Clc1ccc(Nc2c3c(nc4ncnn24)CCC3)cc1,35,-3,2,0,-13,i,-5,-14,

# More records follow.
SMILES,Env fusion inh,eIF4H inh,MT1-MMP act inh,MT1-MMP act inh RFP,Yeast UUG start,Rce1 inh,PABP polyA inh,CSC inhib,others
COc1ccc2c3c(cccc13)OCC2=O,x,18,-19,6,-14,i,26,-4,
CCOC(=O)c1c(C=O)c2ccccc2n1CC,-21,2,-1,3,x,i,3,-13,
Cc1cc(C)n(-c2nc3c(c(=O)[nH]c(=O)n3C)n2C(C)C)n1,x,-4,1,-1,-14,i,-5,-1,
Cc1cc(C)cc(-n2cc(C(=O)O)c(=O)cc2C)c1,3,11,2,2,-15,i,4,4,
CC1Cc2ccccc2N1C(=O)C1CC(=O)N(c2ccccc2)C1 (configuration not stated),9,-6,-3,1,1,i,6,1,
CCCNC(=O)c1ccc2c(c1)CCN2S(C)(=O)=O,4,5,-2,4,x,i,-15,2,
Cc1ccc(CNC(=O)C2CC3Cn4c(nc5cc6ccccc6cc54)C3N2C)o1 (configuration not stated),-1,6,2,1,-24,i,7,-3,
COc1cccc(NC(=O)c2cn(C)c(=O)c3cc(OC)c(OC)cc23)c1,x,-2,1,4,-4,i,3,-9,
Cc1cccn2c(CN3CCCN(C=O)CC3)c(C(=O)N(C)CCc3ccccc3)nc12,20,-7,2,1,x,i,-9,-5,
O=C(c1cc2cc(Br)ccc2oc1=O)N1CCCC1,29,5,7,3,2,i,2,-11,
O=C(Oc1cccc2cccnc12)c1cccs1,x,5,1,2,-11,i,9,5,
NC(=O)c1ccc(C(=O)N/N=C(/Cc2ccccc2)c2ccccc2)cc1,-206,-7,-1,0,-14,i,2,-8,
COc1cccc(-c2nnn(CCC(=O)O)n2)c1,-50,-4,6,1,-18,i,4,0,
O=C(CSc1nnc(COc2ccc(Cl)cc2)o1)N1CCN(c2ccccc2)CC1,24,2,3,-3,-23,i,1,-8,
COC1=NC2=NCCN2C(OC)=N1,11,x,-2,1,-7,x,x,x,
C/C(=N\Nc1ncc(Cl)cc1Cl)c1ccccn1,x,u,-140,-1,x,i,-13,x,
O=C(CSc1ncn(-c2ccccc2)n1)N1CCc2ccccc21,-70,-6,-4,-1,-9,x,4,-1,
CC1(C)COC(Cn2c3ccccc3c3ccccc32)O1 (configuration not stated),-17,-3,-7,-6,x,x,-1,60,
O=C(NCCO)/C(=C\c1cccc([N+](=O)[O-])c1)NC(=O)c1cccs1,-5,x,2,1,-13,x,x,x,
COc1ccc2c3c(cccc13)N(C)N=C2C,x,100*,-38,3,-16,i,u,1,eIF4H inh retest=105*
Cc1ccc(NC(=O)c2sccc2-n2cccc2)c(Cl)c1,9,0,-7,-11,x,i,-1,17,
O=C(NC(=O)c1ccccc1)OCCN1C(=O)c2ccccc2C1=O,-12,1,6,3,x,i,-1,-11,
O=C(c1ccccc1)N1CCC(O)(c2ccc3c(c2)OCO3)CC1,x,9,6,2,-14,i,4,8,
O=[N+]([O-])c1ccc(Nc2ccc(Cl)cc2)nc1,-20,8,3,-6,x,i,0,-5,
COc1ccc(N2CCN(C(=S)Nc3cccc(OC)c3)CC2)cc1,2,-6,2,-1,0,i,-4,-4,
O=C(NC(=S)NCCCN1CCOCC1)c1cccc2ccccc12,3,-4,-3,-1,x,i,15,-1,
COc1ccc(NC(=O)Nc2ccccc2F)c(C)c1,-10,-3,-1,-4,x,i,-1,2,
O=C(CN1CCC(NC(=O)Cc2ccccc2)CC1)Nc1ccccc1Br,-1,-8,4,-2,x,i,10,-12,
C/C=C/C(O)c1ccc2ccccc2c1 (configuration not stated),x,-10,x,x,x,i,3,1,
O=S1(=O)CC(N2CCC(Cc3ccccc3)CC2)CN1C1CCCCC1 (configuration not stated),-19,x,5,-4,-3,x,x,x,

# 2 entries picked at random from the list so far, as already listed:
SMILES,Env fusion inh,eIF4H inh,MT1-MMP act inh,MT1-MMP act inh RFP,Yeast UUG start,Rce1 inh,PABP polyA inh,CSC inhib,others
O=C(NCCO)/C(=C\c1cccc([N+](=O)[O-])c1)NC(=O)c1cccs1,-5,x,2,1,-13,x,x,x,
COc1ccc(N2CCN(C(=S)Nc3cccc(OC)c3)CC2)cc1,2,-6,2,-1,0,i,-4,-4,

# Structural class: the entries above with a furan ring, fused or not.
SMILES,Env fusion inh,eIF4H inh,MT1-MMP act inh,MT1-MMP act inh RFP,Yeast UUG start,Rce1 inh,PABP polyA inh,CSC inhib,others
O=C(NC(=S)Nc1ccc(NC(=O)c2ccco2)cc1)c1ccccc1,x,-7,-2,4,x,i,-2,-9,
O=C(CNS(=O)(=O)c1ccccc1)N1CCN(C(=O)c2ccco2)CC1,8,x,4,1,3,i,x,-10,
Cc1ccc(CNC(=O)C2CC3Cn4c(nc5cc6ccccc6cc54)C3N2C)o1 (configuration not stated),-1,6,2,1,-24,i,7,-3,

# Going on with the list:
SMILES,Env fusion inh,eIF4H inh,MT1-MMP act inh,MT1-MMP act inh RFP,Yeast UUG start,Rce1 inh,PABP polyA inh,CSC inhib,others
Cc1ccc(NC(=O)CCCn2c(=S)[nH]c3ccsc3c2=O)cc1C,-13,5,1,2,-15,i,6,-4,
Cc1ccc(C(=O)N/C(=C/c2cccs2)C(=O)NCCCn2ccnc2)cc1,x,1,2,1,x,i,-10,3,
Cc1ccc(CNC(=O)C2CCCN2C(=O)Nc2cccc(Cl)c2)cc1 (configuration not stated),22,2,2,0,-8,i,6,-29,
Fc1ccc(/C=N\Nc2cccc(F)c2)cc1,-9,-7,-1,4,-20,i,-6,-4,
CCN(C(=O)COC(=O)CSc1ccccc1)c1c(N)n(Cc2ccccc2)c(=O)[nH]c1=O,-2,x,1,2,x,i,x,2,
CSCCC(NC(=O)c1ccco1)C(=O)NCC1CCCCC1 (configuration not stated),-5,x,0,0,0,x,x,x,
COc1ccc(C(=O)CC(=O)C(=O)Nc2cccc(C(C)=O)c2)cc1,19,-5,0,3,-19,i,-2,-1,
CNc1ccc2ncc(-c3ccccc3C(C)=O)n2n1,-1,x,6,5,-26,x,x,x,
O=C(Nc1cccc2c1C(=O)NC2=O)c1cccnc1Cl,-49,-12,-1,1,x,x,1,-20,
COc1cccc(OC)c1NC(=O)Cn1nc(-c2ccc3c(c2)OCCO3)ccc1=O,15,4,-1,-2,1,i,0,-6,
CC(=O)Nc1ccc(NC(C)=O)s1,-7,-5,1,1,-19,i,-2,1,
CC1CCCN(C2=C(NS(=O)(=O)c3ccc(Br)cc3)C(=O)c3ccccc3C2=O)C1 (configuration not stated),-1,-7,8,4,-1,i,27,14,
O=C(c1ccco1)N1CCN(S(=O)(=O)/C=C/c2ccccc2)CC1,3,1,-2,-2,x,i,10,-16,
c1ccc(-c2csc(=Nc3cccnc3)n2CC2CCCO2)cc1 (configuration not stated),32,-4,-2,-4,-11,i,-6,-10,
